# Screening results as filed in PubChem BioAssay.
# Mtb MbtI inh: MbtI salicylate synthase inhibitors, primary screen, biochemical, fluorescence intensity; purified MbtI enzyme, fluorescence intensity read-out; inhibition, %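 (about 17 µg/mL by stock and volumes)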; 0.89% of 100,000 active;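 active = above 50% in both replicates, above 80% if mildly self-fluorescent; inactive = the rest, strongly fluorescent compounds included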;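 also: 0% = mean of negative and 100% = mean of positive controls; one replicate is shown; some compounds called inactive have numbers as strong as hits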
# Target sequence (P9WFX0 whole entry, looked up): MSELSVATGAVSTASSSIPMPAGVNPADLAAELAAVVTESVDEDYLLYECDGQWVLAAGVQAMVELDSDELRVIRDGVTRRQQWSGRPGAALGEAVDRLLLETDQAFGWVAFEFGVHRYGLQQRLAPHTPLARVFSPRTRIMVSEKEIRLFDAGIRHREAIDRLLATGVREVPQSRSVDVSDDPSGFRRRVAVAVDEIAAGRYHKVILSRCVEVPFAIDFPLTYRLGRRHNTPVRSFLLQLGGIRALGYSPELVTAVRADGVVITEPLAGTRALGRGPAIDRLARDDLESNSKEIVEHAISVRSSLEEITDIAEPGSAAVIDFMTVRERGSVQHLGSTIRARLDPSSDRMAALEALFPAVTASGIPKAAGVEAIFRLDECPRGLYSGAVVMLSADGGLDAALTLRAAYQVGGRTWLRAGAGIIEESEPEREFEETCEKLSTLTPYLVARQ
# Polio RdRp inh: poliovirus RdRp elongation inhibitors, primary screen, biochemical, fluorescence polarization, total intensity. Genome polyprotein (Poliovirus type 1 (strain Mahoney)), P03300. poliovirus polymerase elongation; hits give low values. % elongation, % (compound at 16.7 µg/mL). 0.66% of 150,000 active. AID 588519, 2011; in the data active = % elongation below about 90%; also: some results filed as inactive read as strong as hits
# MenB inh: M. tuberculosis MenB inhibitors, primary screen, biochemical, absorbance; MenB enzyme assay, absorbance read-out; some hits fall short of the stated cut; 1,4-dihydroxy-2-naphthoyl-CoA synthase (Mycobacterium tuberculosis (strain ATCC 25618 / …; 0.43% of 100,000 active; inhibition, %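 (about 12 µg/mL by stock and volumes)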;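 active = mean of two replicates above 30%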;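 also: 0% = no compound and 100% = wells with inactive enzyme; the first replicate is given; strong numbers were not always called active; inactives centre near -10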
# Target sequence (P9WNP5 whole entry, looked up): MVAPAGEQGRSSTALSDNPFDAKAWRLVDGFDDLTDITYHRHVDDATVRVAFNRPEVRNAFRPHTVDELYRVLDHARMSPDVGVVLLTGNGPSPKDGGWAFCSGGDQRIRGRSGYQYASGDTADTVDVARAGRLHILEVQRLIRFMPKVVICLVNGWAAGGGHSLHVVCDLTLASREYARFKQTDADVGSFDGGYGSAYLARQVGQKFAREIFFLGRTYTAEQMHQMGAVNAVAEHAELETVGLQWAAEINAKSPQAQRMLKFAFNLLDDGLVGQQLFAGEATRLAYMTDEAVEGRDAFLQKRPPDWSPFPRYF
# Polio RdRp inh intensity: further read-out of Polio RdRp inh, marked with its call; % elongation; measured here: total intensity read-out; formula for this scale not given here;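 total fluorescence in place of polarization; lower means less elongation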
# Starred values were filed as active, the others as inactive; i = inactive; x = not tested or not shown; & = joins results of further samples.
# A first look, two compounds:
# Every second line gives: Mtb MbtI inh	Polio RdRp inh	Polio RdRp inh intensity	MenB inh
COc1ccc(Br)cc1C(=O)O
 : 4.6	100.0	102.0	-22.9
N#Cc1c[nH]n2c(NC3CCCC3)c(-c3cccs3)nc12
 : -0.1	102.0	104.0	7.2

# The listing, previewed entries included:
# Every second line gives: Mtb MbtI inh	Polio RdRp inh	Polio RdRp inh intensity	MenB inh
COc1ccc(Br)cc1C(=O)O
 : 4.6	100.0	102.0	-22.9
N#Cc1c[nH]n2c(NC3CCCC3)c(-c3cccs3)nc12
 : -0.1	102.0	104.0	7.2
CCOC(=O)C1=C(CN2CCC(C(=O)OCC)CC2)NC(=O)NC1c1ccccc1 (stereo unspecified)
 : -5.0	102.0	101.0	-29.7
C/C(=N\NC(=O)c1cccnc1)c1ccc(Cl)s1
 : 9.1	102.0	108.0	-16.9
O=C1CCCN1c1ccc(C(=O)n2ccnc2)cc1
 : -8.9	101.0	95.0	-10.9
O=S(=O)(c1ccc(OC(F)(F)F)cc1)N1CCC(O)(c2cccc(C(F)(F)F)c2)CC1
 : -21.2	105.0	100.0	-16.1
Cc1cc(N2CCOCC2)nc2ccc(NC(=S)NCCC(C)C)cc12
 : -41.1	101.0	96.0	-48.4
CCOC(=O)/C=C/c1ccco1
 : x	107.0	99.0	-14.9
CCOC(=O)C1=C(CC)Nc2ccccc2N=C1N=Cc1c(O)[nH]c(=O)[nH]c1=O
 : 35.9	99.0	97.0	-28.3
Cc1nn(C(=O)C2CCCN2S(=O)(=O)c2ccccc2)c(C)c1Sc1ccccc1 (stereo unspecified)
 : -7.9	103.0	108.0	-12.0
CCc1ccc(NC(=O)Nc2cccs2)cc1
 : 0.8	106.0	110.0	-14.7
CCOC(=O)c1c(NC(=O)CSc2cc(C)c3ccccc3n2)sc2c1CCC2
 : 5.6	104.0	108.0	10.4
CC1CN(C(=O)CCC(=O)NC2CCCC(C)C2C)c2cc(Cl)ccc2O1 (stereo unspecified)
 : -1.1	105.0	97.0	-6.2
Cn1c(SCc2ccc(F)c3ccccc23)nc2ccccc2c1=O
 : x	104.0	106.0	-6.9
c1ccc(-c2[nH]nc(-c3ccc4c(c3)OCO4)c2-c2nc3ccccc3[nH]2)cc1
 : 101.2	102.0	107.0	-5.4
C=CCC1C(C)=NN(C(=O)c2ccc(Cl)cc2)C1(C)O (stereo unspecified)
 : x	104.0	110.0	-16.9
Cc1ccc(NC(=O)CN(C)c2ccc(C(F)(F)F)cn2)cc1
 : 17.3	100.0	101.0	-22.4
O=C(O)c1ccccc1O
 : -125.3	101.0	102.0	2.6
COc1cc(NC(=O)COc2ccccc2F)cc(OC)c1OC
 : 3.4	100.0	102.0	4.1
O=C(NCCc1ccccc1)c1nnc(-c2ccccc2)o1
 : -2.3	104.0	99.0	-8.7
CN(C)C(=S)Cc1ccc(Cl)cc1
 : -10.9	99.0	98.0	-12.5
CCCSc1nnc(-c2c[nH]c3ccccc23)n1CC
 : 3.5	103.0	99.0	0.0
CNS(=O)(=O)Cc1ccccc1CN
 : -11.8	108.0	102.0	-6.0
Cc1cc(-c2ccc(C)c(S(=O)(=O)N3CCC(c4ccccc4)C3)c2)on1 (stereo unspecified)
 : -23.0	102.0	103.0	-30.1
CN1C(=S)NC(C)(C)CC1(C)O (stereo unspecified)
 : -17.6	103.0	102.0	-17.4
CC1(C)CC(NCc2cccnc2)=CC(=C(C#N)C#N)C1
 : 1.5	103.0	104.0	-54.8
CCn1c(O)c(C2=NC(=S)NC2=O)c2ccccc21
 : 10.8	102.0	106.0	-16.8
Cc1nc2ncnn2c(N2CCCCC2)c1Cl
 : -6.2	101.0	101.0	-52.3
CCCCCCCC/C=C\CCCCCCCC(N)=O
 : -22.4	104.0&101.0	102.0&101.0	8.2
Cc1ccc2oc(=O)c3cc(C(=O)NC4CCCC4)sc3c2c1
 : 5.1	x	x	-13.8
S=c1[nH]n(-c2ccc(Cl)cc2)c(=S)s1
 : 6.3&46.6	101.0&102.0	97.0&100.0	-18.4&-63.0
O=C(O)CCc1nn2c(=O)c3ccccc3nc2s1
 : 24.2	100.0	106.0	-12.7
Cc1ccc2nc(-c3cc4ccccc4o3)cc(C(=O)O)c2c1
 : 116.0	104.0	105.0	-5.0
COc1ccccc1N=P12CN3CN(CN(C3)C1)C2
 : -20.5	96.0	102.0	-33.4
Cc1ccc(N2CCN(c3ccc(C)cc3)C2c2ccc(C)o2)cc1
 : -3.1	104.0	102.0	-30.6
O=C(NNc1ccccc1)c1cnn2c(C(F)(F)F)cc(C(F)(F)F)nc12
 : 5.4	104.0	105.0	-9.3
Cc1ccc(C)n1-c1ccc(C(=O)OC2CCCCC2=O)cc1 (stereo unspecified)
 : 16.5	107.0	110.0	-19.7
Cc1cc(C)c2c(N)c(S(=O)Cc3ccc(Cl)cc3)sc2n1 (stereo unspecified)
 : 1.4	100.0	98.0	15.7
Cc1[nH]c2ccccc2c1N=CN(C)C
 : -3.3	101.0	104.0	-10.2
O=C(Cn1nnc(-c2ccc(Cl)cc2)n1)NCCCN1CCOCC1
 : -3.0	102.0	103.0	-1.8
CN(CC(=O)N1CCN(Cc2ccc3c(c2)OCO3)CC1)S(=O)(=O)c1cc(Cl)ccc1Cl
 : -13.9	102.0	103.0	-21.9
N#CC(C#N)=Cc1cccn1-c1ccc(Cl)cc1
 : -10.8	101.0	100.0	-20.8
CC1(C)C=Cc2c(nc3ccccc3c2N)C1
 : x	101.0	101.0	-22.6
CCCCS(=O)(=O)NNc1cc(C(F)(F)F)ccc1Cl
 : -15.2	119.0	128.0	-16.4
COc1cc2ccc(=O)oc2c(O)c1OCC=C(C)C
 : x	114.0	117.0	-9.2
O=C(O)c1ccc(CNc2ccccc2)cc1
 : -0.4	99.0	103.0	-6.4
O=C(Nc1ccc(S(=O)(=O)C(F)F)cc1)c1ccccc1
 : 14.9	101.0	97.0	14.4
Cc1cc(N)n(C2CCN(C)CC2)n1
 : -11.6	105.0	101.0	-35.4
CCn1c(C(=O)NC2CCC(C)CC2)cc2sccc21 (stereo unspecified)
 : -8.6	102.0	105.0	0.8
COc1ccc(/C=C2\SC(=Nc3ccc(N4CCOCC4)cc3)N(C)C2=O)cc1
 : x	102.0	106.0	-13.4
CC1Oc2ccccc2C=C1/C=C/C(=O)O (stereo unspecified)
 : 62.8	102.0	104.0	-14.6
Cn1cc(Br)c(N2C(=O)C=CC2=O)n1
 : 94.7*	100.0	105.0	-12.3
O=C(COc1ncnc2c(Cl)cc(Cl)cc12)c1ccc[nH]1
 : 7.6	103.0	112.0	-12.5
COc1ccc(-c2csc3ncnc(N4CCC5(CC4)OCCO5)c23)cc1
 : -18.1	99.0	102.0	-19.9
Cc1cc(C)cc(N2C(=S)N(c3ccccc3)C3CS(=O)(=O)CC32)c1 (stereo unspecified)
 : -8.8	101.0	101.0	3.2
CCOC(=O)/C(C#N)=C\C1=C(N2CCCC2)CC(C)(C)OC1
 : 62.2*	101.0	103.0	i
CCc1ccc2c(c1)S(=O)(=O)C(C(F)(F)F)CO2 (stereo unspecified)
 : x	84.0*	71.0*	4.1
CC(=O)N/C(=C\c1ccccc1)C(=O)Nc1cccc(C#N)c1
 : 3.8	103.0	104.0	-31.8
O=C(O)C(c1ccccc1)n1cnnn1 (stereo unspecified)
 : 4.9	102.0	100.0	-29.6
CCCc1ccc(-c2cc(N)n[nH]2)cc1
 : -11.9	101.0	103.0	x

# Following part:
# Every second line gives: Mtb MbtI inh	Polio RdRp inh	Polio RdRp inh intensity	MenB inh
O=C(/C=C/c1ccc(F)c(Cl)c1)N1CCN(C(=O)C2CCCO2)CC1 (stereo unspecified)
 : 9.1	100.0	101.0	-13.0
CCN(CC)S(=O)(=O)c1cccc(C(=O)N2CCc3ccccc32)c1
 : 2.5	100.0	100.0	-14.4
O=C(NCc1cccc(C(F)(F)F)c1)c1ccc(S(=O)(=O)NCc2ccco2)cc1
 : 5.8	106.0	108.0	5.6
c1ccc(CCc2nn3c(COc4ccccc4)nnc3s2)cc1
 : 76.2*	99.0	101.0	-33.7
COC(=O)c1ccccc1NC(=O)CSc1nc2ccsc2c(=O)n1Cc1ccc(C)cc1
 : -6.3	102.0	106.0	-6.9
CCOc1ccccc1OCC(=O)NC(C)c1ccccc1 (stereo unspecified)
 : -1.7	101.0	101.0	-20.9
CCC(C(=O)Nc1c(C)n(C)n(-c2ccccc2)c1=O)c1ccccc1 (stereo unspecified)
 : x	103.0	110.0	-11.0
Cc1ccc(CNc2ccc(C(=O)O)cc2)cc1
 : 3.0	104.0	100.0	11.9
O=S(=O)(c1ccc2c(c1)OCCO2)N1c2cccc3cccc(c23)S1(=O)=O
 : -7.0	98.0	101.0	-36.4
CC(C)(C)NC(=O)/C(C#N)=C/c1ccc(OC(F)F)cc1
 : 2.8	104.0	105.0	-18.9
Brc1ccc(C2=Nn3c(Cn4nnc5ccccc54)nnc3SC2)cc1
 : 68.1*	69.0*	74.0*	-4.9
CSc1c(CC(=O)NCCc2ccccc2)n(C)c2ccccc12
 : x	108.0	105.0	-1.5
CC(C)(C)OC(=O)N1C[C@@H]2C(NC(=O)c3nsc(Cl)c3Cl)[C@@H]2C1 (stereo partly specified)
 : 1.6	102.0	110.0	-15.0
S=c1nc(-c2ccccc2)[nH]c2c1Cc1ccccc1O2
 : 9.2	105.0	99.0	-26.3
O=S(=O)(NCCn1ccc2ccccc21)c1ccc(Cl)cc1
 : 4.2	101.0	102.0	-4.8

# Following part:
compound	Mtb MbtI inh	Polio RdRp inh	Polio RdRp inh intensity	MenB inh
CN1CCN(CCCN2c3ccccc3Sc3ccc(Cl)cc32)CC1	-0.2&-16.4	101.0&102.0	99.0&102.0	0.7&-4.9
Cc1ccc(Oc2ncccc2NC(=O)C(=S)NCc2ccccc2)c2c1CCC2	-2.1	104.0	107.0	-20.3
CCOc1ccccc1-n1nnnc1SC(C)C(=O)OC (stereo unspecified)	5.2	104.0	103.0	-0.2
CCC(C)(C)NC(=S)Nc1cccc(OC)c1	-1.6	104.0	103.0	-6.1
CCOC(=O)c1cnc2c(C(F)(F)F)cccc2c1Cl	10.2	102.0	104.0	-1.2
N/C(=N\c1nc2ccccc2o1)NC(=O)c1ccccc1	5.0	99.0	100.0	-10.5
O=C(Cc1cccs1)NCC1CCCCC1	-3.0	97.0	97.0	-100.2
O=C(CCc1ccccc1)Nc1ccon1	-9.2	104.0	102.0	-10.1
CCCNCC(O)COc1ccccc1C(=O)CCc1ccccc1 (stereo unspecified)	-9.2&-6.5&-8.4	102.0&101.0&98.0	103.0&100.0&104.0	3.6&-3.1
CCOC(=O)c1ccc(-n2nc(C)c(C(=O)OCC)c2C)cc1	2.1	101.0	106.0	-4.0
Brc1cc2c(cc1CSc1nc3ccccc3o1)OCCO2	16.0	99.0	99.0	-12.1
Cc1ccc(N2C(=O)CC3(CCCC3)C2=O)cc1	-7.6	101.0	107.0	6.2

# One compound at a time (already shown). Order of values: Mtb MbtI inh | Polio RdRp inh | Polio RdRp inh intensity | MenB inh
# Entry for `O=C(Cc1cccs1)NCC1CCCCC1` = -3.0 | 97.0 | 97.0 | -100.2
# Entry for `Cc1ccc(N2C(=O)CC3(CCCC3)C2=O)cc1` = -7.6 | 101.0 | 107.0 | 6.2

# (continued)
compound	Mtb MbtI inh	Polio RdRp inh	Polio RdRp inh intensity	MenB inh
CNC(=O)CCCc1nc(-c2ccccc2Cl)no1	-12.7	100.0	100.0	-5.9
CC(OC(=O)c1oc2ccccc2c1COc1ccccc1)C(N)=O (stereo unspecified)	2.5	100.0	102.0	-21.8
CN1CCN(CCNC(=O)c2ccc(Cn3c(SCc4ccccc4)nc4cccnc43)cc2)CC1	87.0	100.0	98.0	9.9
Cn1c(=O)c2c(ncn2CCNC2=NCCC2)n(C)c1=O	-4.7	103.0	105.0	-25.6
NS(=O)(=O)c1ccc2nc(NC(=O)c3cccs3)sc2c1	37.9	104.0	111.0	-23.9
COc1cc(C(=O)NCc2cccnc2)ccc1OCc1ccc(Cl)cc1	x	102.0	108.0	-25.1
O=C(Nc1cccc(C(=O)O)c1)/C(=C\c1ccco1)NC(=O)c1ccc(Br)cc1	12.5	100.0	103.0	11.1
NC(=O)NCc1ccccn1	7.3	102.0	103.0	-31.7
Cc1ccc(CNC(=O)Nc2cccc(Cl)c2)n1C	-2.2	103.0	104.0	-11.0
C=CC#CC1(O)CC(C)[N+](C)(C)CC1C (stereo unspecified)	10.7	99.0	100.0	3.0
CCOC(=O)CSc1nc2nccnc2c(=O)n1Cc1ccccc1	0.9	103.0	97.0	-20.8
CCCC(=O)Nc1ncnc2c1ncn2[C@@H]1O[C@@H]2COP(=O)(O)O[C@@H]2C1OC(=O)CCC (stereo partly specified)	-2.5	100.0	102.0	0.6
O=C(NCc1cn2ccsc2n1)c1cc(Cl)cc(Cl)c1	-7.4	102.0	104.0	x
CCC(=O)C(C#N)c1nnc(-c2ccccc2)s1 (stereo unspecified)	30.2	99.0	102.0	2.9
CCOC(=O)C1=C(CC)Nc2ccccc2N/C1=N\S(=O)(=O)c1ccccc1OC	-3.7	107.0	104.0	-6.8
